VACV Venus inh – qHTS for Stage-Specific Inhibitors of Vaccinia Orthopoxvirus: Venus Reporter Primary qHTS; 0.46% of 330,000 active; Vaccinia virus Venus reporter expression, fluorescence; Potency, µM (titrated, usually from 36.5 µM), inactives show at the highest dose activity change, negative = inhibition, hits mostly inhibitors; AID 720580, 2013; active means well fitted inhibition curve with a large enough effect; inconclusive means small, poorly fitted or top-dose-only effect; inactive means no such curve, though single readings can be large or run the other way; tested in A549 cells; also: nearly all actives have a fitted effect of over 30% in size; inactives centre near -10
VACV mCherry inh – qHTS for Stage-Specific Inhibitors of Vaccinia Orthopoxvirus: mCherry Reporter Primary qHTS; Potency, µM (doses to about 36.5 µM), without a hit: top-dose activity change, negative = inhibition, most hits filed as inhibitors; 0.63% of 310,000 active; Vaccinia virus mCherry reporter infection, fluorescence; about a quarter of the inactives have no number; active = well fitted inhibition curve with a large enough effect; inconclusive = small, poorly fitted or top-dose-only effect; inactive = no such curve, though single readings can be large or run the other way; tested in A549 cells; also: nearly all actives have a fitted effect of over 35% in size; inactives centre near -10
An asterisk follows results filed as active; i = inactive; ? = inconclusive; . = no result given; & = joins results of further samples; [ ] = remark or other dose. % is scaled to controls: 0 for no effect and ±100 for the full control effect; potency is read from the fitted curve at half-maximal effect.

Molecule	VACV Venus inh	VACV mCherry inh
O=C(Nc1ccon1)c1ccc(Cl)c(S(=O)(=O)N2CCCCC2)c1	-21%	-22%
Cc1cccc(NC(=O)c2nc[nH]c2C(=O)NC[C@H](C)O)c1	-24%	-11%
Cc1cc(C)n(C(=O)c2ccc(S(=O)(=O)NCC3CCCO3)cc2)n1 (stereo not given)	-12%	.
CCCNC(=S)N1CCN(Cc2ccc3c(c2)OCO3)CC1	-2%	-17%
CCOc1cc(C(=O)OC(C)C(=O)Nc2ccc(NC(C)=O)cc2)ccc1OCC(=O)N1CCCCC1 (stereo not given)	-12%	-12%
O=C(OCn1ncc(Br)c(Br)c1=O)c1ccc(F)cc1	10µM*	11µM*
CCCN1CCC(=O)N([C@H](CSc2ccccc2)c2ccccc2)CC1	-5%&-14%	i
OC(c1ccc(F)c(F)c1)c1nc(-c2cnc3ccccc3c2)cs1 (stereo not given)	4%	i
O=C(CCCOc1ccc(Cl)cc1Cl)NN1CCOCC1	-2%	i
Cc1nc(Cc2nnc(SCC(=O)N(C)c3ccccc3)o2)cs1	-10%	i
Cc1cc(OC(C)C)c2c(-c3ccccc3)cc(=O)oc2c1	-17%	.
COc1ccc(CCNC2=NCCS2)cc1OC	0%	-10%
COc1cccc(CN2CC(C(=O)N3CCN(c4ccc(Cl)cc4)CC3)CCC2=O)c1 (stereo not given)	-21%	-30%
O=C(COc1ccc(Cl)cc1Cl)N(c1ccccn1)C1CCCCC1	-9%	-15%
CC1CCc2c(sc(NC(=O)c3ccccc3C(=O)O)c2C#N)C1 (stereo not given)	-9%	i
CCC(CC)c1nnc(NC(=O)CS(=O)(=O)Cc2ccccc2)s1	10%	2%
CC(C)CC(NC(N)=O)C(=O)NCc1ccc(Cl)cc1 (stereo not given)	0%	-1%
CCC(Sc1ncnc2c1nnn2-c1ccc(F)cc1)C(=O)OC (stereo not given)	-7%	.
COc1ccc(NS(=O)(=O)c2cccc(NC(=O)CCS(=O)(=O)c3ccccc3)c2)cc1	-16%	-11%
Cc1cc(OC(C)C(=O)NCC2CCC(C(=O)O)CC2)c2c(C)cc(=O)oc2c1 (stereo not given)	1%	-6%
CCC1C(=O)NCCN1Cc1ccc2c(c1)CN(Cc1ccc3c(c1)OCCO3)CCO2 (stereo not given)	-6%	-9%
CC(C)[C@H](NC(=O)C1CCN(S(=O)(=O)c2ccccc2)CC1)C(=O)NCc1ccco1	-8%	i
CCN(CC(=O)Nc1c(F)cccc1F)C(=O)c1ccc2ncsc2c1	-2%	-17%
C/C(=N\NC(=O)c1cccc([N+](=O)[O-])c1)c1ccncc1	3%	1%
CCOc1ccc(NC(=O)CC2C(=O)N(c3ccc(OC)cc3)C(=S)N2Cc2ccccn2)cc1 (stereo not given)	-10%	i
COc1ccc([N+](=O)[O-])cc1NC(=O)C(C)OC(=O)CSC(C)C(=O)Nc1cc(C)on1 (stereo not given)	-9%	-11%
Cc1cccc(-n2cnc(C(=O)N/N=C/c3ccccc3)c2)n1	-11%	.
CCOc1cc(NC(=S)NCCCN2CCOCC2)c(OCC)cc1NC(=O)c1cccc(F)c1	3%	-5%
Cc1ccc(S(=O)(=O)N2CCOCC2)cc1C(=O)N(C)CCOc1ccc(Cl)cc1	-5%	12%
c1ccc(-c2nnc(N3CCOCC3)nc2-c2ccccc2)cc1	-16%	-13%
OCc1cc(CO)c(O)c(CCc2ccccc2)n1	-6%	-15%
O=C1/C(=C\c2ccc([N+](=O)[O-])cc2)CS(=O)(=O)C/C1=C/c1ccc([N+](=O)[O-])cc1	?	?
O=[N+]([O-])c1cccc(S(=O)(=O)N2CCN(c3nc(-c4ccccc4)nc4ccccc34)CC2)c1	-18%	-4%
CCCCn1c(=O)[nH]c2nc3cc(N)ccc3nc2c1=O	42%[activator]	-11%
CCOC(=O)c1cccc(NC(=O)CCn2nc(C)c(S(=O)(=O)N3CCCCC3)c2C)c1	-23%&-20%	-19%&-8%
CCN(CC)c1nc(C#N)nc(N(CC)CC)n1	-10%&-14%	-18%&-5%
Cc1ccc(CN2CC(C(=O)N3CCN(S(=O)(=O)c4cc(C)ccc4C)CC3)CC2=O)cc1 (stereo not given)	-23%	-4%
O=C1c2ccccc2C(Nc2cccc(C(F)(F)F)c2)N1Cc1ccco1 (stereo not given)	?	-23%
O=C(O)c1ccccc1Cc1ccc(F)c2ccccc12	-5%	i
O=S(=O)(c1ccc(NC(=S)N/N=C/c2c3ccccc3cc3ccccc23)cc1)N1CCOCC1	?	-9%
Cc1ccc(S(=O)(=O)N2CCN(c3nc(-c4ncccn4)nc4ccccc34)CC2)cc1	-13%	i
O=C1CCCc2c1cc(C(=O)Nc1ccc(Cl)cn1)c(=O)n2-c1ccccc1	-11%	-19%
COCCCN1C(=O)C(=O)/C(=C(/O)c2ccc(S(=O)(=O)N3CCOCC3)cc2)C1c1ccc(C)cc1 (stereo not given)	1%	i
O=S(=O)(/C=C/c1ccccc1)Nc1cccc(S(=O)(=O)NC2=NCCC2)c1	8%	3%
Cc1cc(OCC(=O)N2CCN(c3cccc(Cl)c3)CC2)c2c(C)c(C)c(=O)oc2c1	-5%[7.34 µM]	-3%[7.34 µM]
CCCCn1nc2cc(C(=O)N(CC)c3ccc(OC)cc3)ccc2c1OCC	-22%	i
CCOC(=O)c1c(NC(=O)COC)sc(C(C)=O)c1C	-11%	-19%
O=C(CSc1ncccc1C(=O)O)Nc1ccc2c(c1)OCCO2	-5%	-2%

Retrieved by compound from above, 2 records:
Molecule	VACV Venus inh	VACV mCherry inh
O=C(CSc1ncccc1C(=O)O)Nc1ccc2c(c1)OCCO2	-5%	-2%
O=S(=O)(/C=C/c1ccccc1)Nc1cccc(S(=O)(=O)NC2=NCCC2)c1	8%	3%

Remaining list, next part
Molecule	VACV Venus inh	VACV mCherry inh
CCCCCC(=O)N[C@@H](c1ccccc1)[C@@H](O)C(=O)O[C@H]1C[C@@]2(O)[C@@H](OC(=O)c3ccccc3)C3[C@](C)(C(=O)[C@H](OC(C)=O)C(=C1C)C2(C)C)[C@@H](O)C[C@H]1OC[C@@]31OC(C)=O (stereo not given in full)	?	?
Cn1nccc1C(=O)NCC1CCC2(CCN(Cc3c(O)ccc4ccccc34)CC2)O1 (stereo not given)	-2%	-8%
Cc1cccc(CC(=O)NCCN2CCCCC2)c1	-2%	-4%
O=C1c2ccccc2C(=O)N1Nc1ccc([N+](=O)[O-])cc1[N+](=O)[O-]	-7%	?
Cc1ccc(NC(=S)N2CCOCC2)cc1	-5%	-10%
O=c1[nH]c(=O)n(Cc2ccco2)c(O)c1/C=N/N1CCCCCC1	-13%	-4%
CCOC(=O)c1sc2nc3n(c(=O)c2c1C)CCCCC3	-15%	-16%
Cc1cc(OCCCN2CCC(C(O)(c3ccccc3)c3ccccc3)CC2)ccc1Br	?	?
COc1ccc(-c2cc(=O)oc3cc(OCC(=O)N4CCOCC4)ccc23)cc1	-5%	6%
Cc1ccc(NC(=O)CS(=O)CC(=O)N(CC(=O)NC(C)(C)C)c2cccc(C)c2C)cc1 (stereo not given)	-17%	-25%
CC(=O)c1ccccc1OC(=O)c1ccco1	-4%	-4%
Cc1ccc2nc(-c3ccc(SCC(=O)Nc4ccc5c(c4)OCCO5)nc3)[nH]c2c1	-14%	-26%

Continued.
Below each compound – VACV Venus inh, VACV mCherry inh
CC(=O)NCCN=Cc1sc2ccccc2c1O
→ -4%, -8%
O=C(NCc1cc(C(F)(F)F)ccc1Cl)c1cccc2c1C(=O)c1ccc(N3CCC(Cc4ccccc4)CC3)cc1S2(=O)=O
→ 10%, i
CC(=O)c1c(C)[nH]c(C(=O)CSc2nnc3ccccn23)c1C
→ -6%, -15%
Cc1ccc2c(c1)N(CC(=O)NC1CCCCCC1)C(=O)c1cccnc1O2
→ -3%, -11%
CC(C)(CNC(=O)c1ccccc1F)CNC(=O)c1ccccc1F
→ 10%, -3%
O=C(CCSCCC(=O)N1CCCC1)N1CCCC1
→ -3%, -12%
CC(NC1CCCCC1)C(O)C12CC3CC(CC(C3)C1)C2 (stereo not given)
→ -16%, ?
Cc1nn(C(=O)c2ccc3c(c2)OCO3)c(N)c1-c1ccccc1
→ -5%, -6%
COc1ccc(C2=NN3C(=O)c4c(ccc(OC)c4OC)C3C2)cc1 (stereo not given)
→ -8%, .
COC(=O)c1ccccc1NCCO
→ -14%, i
O=C(COC(=O)Cc1c(Cl)cccc1Cl)NCc1ccccc1
→ -20%, ?
CCSc1nnc(NC(=O)c2cc(-c3ccccc3O)n[nH]2)s1
→ -14%, ?
C/C(CC(=O)Nc1c(C)cc(C)cc1C)=N\NC(=O)OC(C)(C)C
→ -11%, -20%
C/C(=N\NC(=O)c1nnn(-c2nonc2N)c1-c1ccccc1)c1ccccc1O
→ ?, 2µM*
COc1cc2cc(CCOC(=O)c3ccco3)oc(=O)c2cc1OC
→ -12%, -23%
CCc1c(C)nc2nncn2c1Nc1ccc(Cl)cc1
→ -17%, -20%
CCOC(=O)c1c(C)[nH]c(C)c1S(=O)(=O)N1CCC(C(=O)N2CCN(c3cccc(C)c3)C(C)C2)CC1 (stereo not given)
→ ?, ?
CCCC(=O)Nc1ccc(C(=O)NCCc2ccc(F)cc2)cc1
→ 6%, -13%
O=C(Cc1ccc(NC(=O)C2CCN(C(=O)C3CCC3)CC2)cc1)Nc1ccc(C(=O)N2CCOCC2)cc1
→ -10%, i
COc1ccc2nc(SCC(=O)Nc3ccc(S(=O)(=O)N4CCCC4)cc3)c(C#N)cc2c1
→ -11%, i
CN(CC(=O)N1CCN(c2ccc(F)cc2)CC1)S(=O)(=O)c1ccc(F)cc1
→ -9%, .
CCC(C(=O)NCc1ccccc1)n1c(-c2cccs2)nc2ccccc21 (stereo not given)
→ -10%, -3%
Cc1ccc(N2CCN(C(=O)c3c(C)oc4ncn(CC(C)C)c(=O)c34)CC2)c(C)c1
→ -2%, -18%
O=C(CSc1c2c(nc3cc(Cl)ccc13)CCCC2)N1CCN(c2ccccc2F)CC1
→ -20%, -13%
COc1ccc(Oc2c(OC)cc(NCc3ccc(CN)cc3)c3ncccc23)cc1
→ -1%, i
COc1ccc(Cl)cc1NC(=O)C1CCN(S(=O)(=O)c2ccc3c(c2)CC(C)N3C(C)=O)CC1 (stereo not given)
→ -8%, -16%
CCOc1cc2c(cc1OCC)C(CC(=O)OC)N(C(=O)Nc1cc(C)cc(C)c1)CC2 (stereo not given)
→ -17%, i
COc1ccc(NC(=O)Cn2nnc(C(=O)NCc3cccs3)c2N)c(OC)c1
→ 0%[7.34 µM], i[7.34 µM]
CCCOc1cccc(-c2cc(C(=O)NN)c3ccccc3n2)c1
→ -11%, -29%
COc1ccccc1NC(=S)NC(=O)/C=C/c1cccs1
→ -12%, -6%

A draw from above in order of formula weight, falling.
Below each compound – VACV Venus inh, VACV mCherry inh
COc1ccc(NC(=O)Cn2nnc(C(=O)NCc3cccs3)c2N)c(OC)c1
→ 0%[7.34 µM], i[7.34 µM]
O=C(COC(=O)Cc1c(Cl)cccc1Cl)NCc1ccccc1
→ -20%, ?
CC(C)(CNC(=O)c1ccccc1F)CNC(=O)c1ccccc1F
→ 10%, -3%
CC(=O)c1c(C)[nH]c(C(=O)CSc2nnc3ccccn23)c1C
→ -6%, -15%

The results go on.
Below each compound – VACV Venus inh, VACV mCherry inh
Cc1cnn(-c2cc(N/N=C/c3ccc(F)cc3)ncn2)c1
→ -2%, .
CN(c1ccccc1)S(=O)(=O)c1cccc(C(=O)OCC(=O)NCc2ccc3c(c2)OCO3)c1
→ -16%, -11%
CCOCCCNC(=O)CN1C(=O)/C(=C/c2ccccc2)Sc2ccccc21
→ -15%, -22%
CSCCC(NC(=O)c1ccccc1Br)C(=O)N1CCC(C)CC1 (stereo not given)
→ 0%, -3%
CN1CCN(C(=O)C2=C[C@H](c3ccc(Br)cc3)C[C@H](OCCCCO)O2)CC1
→ 0%, 0%
CC[C@]1(C(=O)OC)[C@H]2C(=O)N(Cc3ccccc3)C(=O)[C@H]2[C@H]2CN=C(SCc3ccc(C)cc3)N21
→ -16%, ?
COc1ccc(Cl)cc1NC(=O)CN1C(=O)CCS(=O)(=O)c2ccccc21
→ -2%, .
Cc1cccc(C)c1NC(=O)CN(C)C(=O)C1CCN(c2ncnc3sc(C)c(C)c23)CC1
→ ?, ?
COc1cccc(/C=C(/C#N)c2ccc(F)cc2)c1OCc1cccc(C(=O)O)c1
→ -4%, -3%
CCc1nc2ccccc2c(C(=O)OCC(=O)Nc2ccc(S(=O)(=O)N3CCOCC3)cc2)c1C
→ ?, ?
CCOc1ccc(N(CC(=O)NC2CCCCCC2)S(=O)(=O)c2ccccc2)cc1
→ -7%, -7%
CCSc1ccc([C@@H]2[C@@H]3C(=O)N(C)C(=O)[C@@H]3[C@]3(C(=O)OC)CCCCN23)cc1
→ -22%, i
O=C1CC(=O)CC(c2ccco2)C1
→ -7%, .
Cc1nnc(SCC(=O)NNC(=O)c2ccccc2)n1-c1ccccc1
→ -6%, -13%
CC(NC(=O)CCCc1ccccc1)c1ccncc1 (stereo not given)
→ -9%, i
COC(=O)[C@@]1(Cc2ccc(OC)cc2)[C@H]2c3cc(C(=O)N(C)C)[nH]c3C[C@H]2CN1C(=O)c1ccccc1
→ -14%, 14%
Cc1ccc(NC(=O)CSc2ncc(S(=O)(=O)c3ccccc3)c(=O)[nH]2)cc1C
→ -8%, i
COc1ccc(OCC(=O)N2CCN(CCc3ccncc3)CC2)cc1
→ -10%, -7%

High-throughput results (PubChem)
